PINK1 modulator: A Quantitative High throughput Screen to Identify Chemical Modulators of PINK1 Expression | PINK1 immunofluorescence, high-content cytometry, 24 h | Potency, µM (top dose mostly 76.6 µM), for inactives: top-dose activation (PINK1 increase), most hits filed as activators | 410,000 compounds, 0.2% hits; active = well fitted activation curve with a large enough effect; inconclusive = small, poorly fitted or top-dose-only effect; inactive = flat fitted curve, though single readings scatter; cell line not stated here;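 also: potency is read from the fitted curve at half-maximal effect; % of control where 0% means no effect; nearly all actives have a fitted effect of over 65% in size; a mitochondrial uncoupler was the plate control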
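Measures PINK1 amount and localization on or inside mitochondria by immunofluorescence. Stable cells get compounds at 5 concentrations for 24 hours before fixation and staining; CCCP controls included.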
Six1-Eya2 blk: qHTS Assay for Inhibitors of the Six1/Eya2 Interaction; Homeobox protein SIX1 (Homo sapiens) + Protein phosphatase EYA2 (Homo sapiens), …; AlphaScreen GST-Six1/His-Eya2 binding, biochemical; stronger effect = lower value; control for the full effect not named in the record; activity change, % (test concentration not listed); 360,000 compounds, 0.56% hits; in the data active = activity change below about -65%; inconclusive = about -30% to -65%; inactive = above about -30%; also: % is scaled to controls: 0 for no effect and ±100 for the full control effect
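GST-Six1 + His-Eya2 (5X stock: 250/500 nM); Tris pH 8.0, 300 mM NaCl, 0.05% BSA, 0.02% Tween 20; GSH donor/Ni acceptor beads; 1 h 37 °C dark; AlphaScreen readout.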
D2 PAM: Beta-Arrestin HTS for Positive Allosteric Modulators of the Human D2 Dopamine Receptor: Potentiators; D(2) dopamine receptor (Homo sapiens), P14416; DiscoveRx D2 beta-arrestin cells, luminescence, 90 min; 100% = 57 uM dopamine signal; potentiation, % (test concentration not listed); 360,000 compounds, 0.23% hits; AID 624464, 2012; active = potentiation of 50% or more; inconclusive = 30% to 50%; inactive = 30% or less;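 also: compound concentration not given in the record; tested on top of an EC20 dose of dopamine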
Target sequence (P14416 whole entry, looked up): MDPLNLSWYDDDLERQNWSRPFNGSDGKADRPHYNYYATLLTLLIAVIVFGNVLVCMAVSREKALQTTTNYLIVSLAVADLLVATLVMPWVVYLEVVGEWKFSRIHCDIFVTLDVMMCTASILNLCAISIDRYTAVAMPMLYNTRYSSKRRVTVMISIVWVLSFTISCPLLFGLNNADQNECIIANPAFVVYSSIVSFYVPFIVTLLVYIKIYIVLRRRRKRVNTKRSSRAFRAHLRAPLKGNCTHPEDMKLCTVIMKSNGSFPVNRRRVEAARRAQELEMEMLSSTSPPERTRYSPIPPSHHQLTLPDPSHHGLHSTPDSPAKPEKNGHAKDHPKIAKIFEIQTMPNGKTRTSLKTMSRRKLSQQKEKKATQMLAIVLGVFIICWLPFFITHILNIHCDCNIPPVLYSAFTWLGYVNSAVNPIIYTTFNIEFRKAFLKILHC
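PathHunter D2 cells, attached overnight at 37 deg C, received compound in DMSO plus dopamine at EC20 (50 nM final) for 90 min at 37 deg C. Beta-arrestin recruitment was read as luminescence after 1 h with detection reagent at ambient temperature.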
TRPML1 ag: qHTS for Agonists of the Human Mucolipin Transient Receptor Potential 1 (TRPML1); Mucolipin-1 (Homo sapiens), Q9GZU1; TRPML1-expressing cells, Ca2+ dye fluorescence, FDSS; host cell line not named in the record; reference of the full effect not given here; activation, % (concentration not given with the values); 410,000 compounds, 0.12% hits; in the data active = activation above about 50%; inconclusive = about 30% to 50%; inactive = below about 30%; also: 0% is about no effect; the text of the record puts the active cut at 80%
Target sequence (Q9GZU1 whole entry, looked up): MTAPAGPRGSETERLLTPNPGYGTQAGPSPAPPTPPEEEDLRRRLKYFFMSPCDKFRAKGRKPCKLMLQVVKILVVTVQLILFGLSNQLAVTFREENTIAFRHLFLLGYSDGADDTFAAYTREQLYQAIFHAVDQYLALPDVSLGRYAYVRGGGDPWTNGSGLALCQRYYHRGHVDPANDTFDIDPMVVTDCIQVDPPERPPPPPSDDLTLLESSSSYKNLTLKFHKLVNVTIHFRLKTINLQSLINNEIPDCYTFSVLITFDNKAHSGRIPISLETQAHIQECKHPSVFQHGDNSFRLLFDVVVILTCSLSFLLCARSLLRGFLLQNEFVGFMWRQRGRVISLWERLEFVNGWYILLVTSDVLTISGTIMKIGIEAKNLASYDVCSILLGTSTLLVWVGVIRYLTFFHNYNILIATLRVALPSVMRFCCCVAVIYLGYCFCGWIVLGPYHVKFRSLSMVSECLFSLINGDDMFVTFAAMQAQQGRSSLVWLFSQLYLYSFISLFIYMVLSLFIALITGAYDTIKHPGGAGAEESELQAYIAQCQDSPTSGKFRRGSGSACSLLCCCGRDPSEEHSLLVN
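Kinetic FDSS Ca2+ read in Tet-induced TRPML1-DL cells (ABD Ca8 dye plus quencher, 45-90 min RT loading): baseline, then compound, then 110 s agonist window; EC80 agonist 54-4 at 4uM final added afterwards for a 110 s antagonist window.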
TRPML1 inh: qHTS for Inhibitors of the Human Mucolipin Transient Receptor Potential 1 (TRPML1); Mucolipin-1 (Homo sapiens), Q9GZU1; TRPML1-inducible cells, Ca2+ dye fluorescence, FDSS; stronger effect = lower value; inhibition of EC80 agonist-evoked calcium signal; activity change, negative = inhibition, % (concentration not given with the values); 390,000 compounds, 0.02% hits; in the data active means activity change below about -50%; inconclusive means about -30% to -50%; inactive means above about -30%;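 also: stimulus is agonist 54-4 at its EC80 concentration; % is scaled to controls: 0 for no effect and ±100 for the full control effect; the text of the record puts the active cut at -80%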
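Tet-induced TRPML1-DL cells loaded with Ca8 no-wash calcium dye were read kinetically on FDSS. Compound addition was followed by EC80 agonist 54-4 (4 uM final); inhibition was read over 110 s.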
D2 agonist: Beta-Arrestin HTS for Positive Allosteric Modulators of the Human D2 Dopamine Receptor: Agonists; DiscoveRx PathHunter D2 beta-arrestin, luminescence, 90 min; 100% = 57 uM dopamine signal; 360,000 compounds, 0.084% hits; D(2) dopamine receptor (Homo sapiens), P14416; activation, % (test concentration not listed); AID 624465, 2012; in the data active = activation above about 40%; inconclusive = about 15% to 40%; inactive = below about 15%; also: compound concentration not given in the record; the text of the record calls up to 30% inactive
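Agonist mode: compounds alone added to overnight-plated D2 PathHunter cells for 90 min at 37 C, with 57 uM final dopamine (EC100) defining full response. Beta-arrestin recruitment detected by chemiluminescent reagent, read after 1 h at ambient temperature.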
* = called active by the depositor; ? = inconclusive; . = not tested or not shown; [ ] = remark or other dose.

Compound	PINK1 modulator	Six1-Eya2 blk	D2 PAM	TRPML1 ag	TRPML1 inh	D2 agonist
O=C(Nc1c2n(c(=S)n(-c3ccccc3)c1=O)CCCCC2)c1ccccc1	-2.0%	3	-1	0.4	10	-2.4
COc1ccc(N2CCN(CC(O)COCCOc3ccc(Br)cc3)CC2)cc1 (configuration not stated)	0.5%	-9	-11	1.0	0	-8.0
CC(O)c1cccc(N=Cc2ccc3ccccc3c2O)c1 (configuration not stated)	-1.6%	2	-5	-0.6	27	-2.0
CC(NC(=O)/C(C#N)=C1\N=C(NC(=O)c2ccco2)c2ccccc21)c1ccccc1 (configuration not stated)	2.5%	-15	-14	-0.1	17	-7.1
O=C(NCc1ccco1)c1sc2ccccc2c1Cl	-1.5%	-12	-14	1.5	5	-1.3
NC(=S)NNC(=O)c1cccc(Cl)c1	1.2%	8	-7	0.0	17	-1.2
COc1ccccc1-n1cnnc1SCC(=O)Nc1nc(C)c(Cl)cc1Cl	-3.1%	6	-22	-1.0	-2	0.6
CC(=O)Nc1nonc1NC(=O)CSC1=NCCS1	0.6%	-4	17	0.1	-6	-2.4

Look-ups from the entries so far:
COc1ccccc1-n1cnnc1SCC(=O)Nc1nc(C)c(Cl)cc1Cl in D2 PAM shows -22
CC(O)c1cccc(N=Cc2ccc3ccccc3c2O)c1 (configuration not stated) in D2 agonist shows -2.0

(further entries)
Compound	PINK1 modulator	Six1-Eya2 blk	D2 PAM	TRPML1 ag	TRPML1 inh	D2 agonist
O=C(CCC(=O)OCC(=O)c1ccc(-c2ccccc2)cc1)Nc1cccc2cccnc12	0.4%	8	-5	1.7	1	-0.4
CC(C)CC(=O)NN(C)c1nc(-c2ccccc2)nnc1C(F)(F)F	-0.6%	-3	-8	-0.8	13	-3.6
O=C(CSc1nnnn1-c1cccc(O)c1)NC1CC1	0.4%	15	-11	-0.3	-3	-2.5
Cc1ccc(C(=O)OCC2OC3OC(C)(C)OC3C2O)cc1 (configuration not stated)	2.4%	10	-6	-0.4	21	-4.0
O=C1c2ccccc2C2(c3ccccc3)NCCN12 (configuration not stated)	7.4%[38.3 µM]	4	-8	0.2	7	2.7
Cc1cc(S(=O)(=O)c2cc3ccc(O)c(C)c3oc2=O)ccc1F	?	12	3	8.4	2	5.4
O=C(COc1ccc([N+](=O)[O-])cc1)NCCc1nc2ccccc2[nH]1	-1.2%	1	-1	0.0	3	6.0
CCO[C@H]1OC(C(=O)N2CCN(Cc3ccc4c(c3)OCO4)CC2)=C[C@@H](c2cn(C(C)=O)c3ccccc23)[C@@H]1CCCO	-0.4%	-16	-18	-0.7	4	1.5
CC(C)C1C(C#N)=C(N)Oc2n[nH]c(-c3ccc4ccccc4c3)c21 (configuration not stated)	.	-9	1	0.7	24	1.9
CC1CCCCC1NC(=O)c1cncc(Br)c1 (configuration not stated)	-1.6%	5	-11	-0.2	2	-1.1
COCC1CCN(C(=O)CC2C(=O)NCCN2Cc2cccc(Oc3ccccc3)c2)CC1 (configuration not stated)	1.7%	-2	0	-0.5	6	3.5
Cc1ccc(NC(=O)CNC(=O)c2cccs2)c(O)c1	-0.3%	5	-5	0.7	-17	-1.8
COc1cccc(C(C(=O)NC2CCCC2)N(C(=O)c2ccco2)c2cccc(C(C)=O)c2)c1OC (configuration not stated)	1.3%	4	-9	-1.3	8	-18
Cc1ccc(NC(=O)NC2=N/C(=C(/C#N)C(=O)N3CCCC3)c3ccccc32)cc1	14%	-15	-6	0.5	2	2.9
COc1ccccc1NC(=O)CCc1nc2ccccc2s1	1.3%	0	-8	1.6	-6	-0.3
CCCCOc1ccccc1C(=O)NCC(=O)O	.	4	14	2.1	-10	-4.0
O=C(CN1CCCC1)Nc1sc2c(c1C(=O)Nc1ccccc1)CCCC2	2.8%	-5	-9	-1.0	11	-3.8
O=C1Nc2ccccc2C1Cc1ccc(Br)cc1 (configuration not stated)	0.8%	.	.	2.6	-1	.
OC(CNC1CCCCC1)COCCOc1ccc(Br)cc1 (configuration not stated)	1.8%	2	-33	0.3	23	-7.6
O=C1CN(S(=O)(=O)c2ccccc2)CCN1S(=O)(=O)c1ccccc1	1.8%	-4	-15	1.2	-18	1.8
Cc1cnc(NC(=O)CSc2nnc(-c3ccc(Cl)cc3Cl)n2N)s1	-2.4%	-7	-7	0.4	3	-1.3
COC(=O)c1ccc(CN2CCN(C(C)C)C(CCO)C2)cc1 (configuration not stated)	-1.1%	18	-9	0.0	89	-4.4
CN(C)CCN(Cc1ccccc1)S(=O)(=O)c1ccc2[nH]c(=O)ccc2c1	23%	.	.	1.0	-3	.
CCOC(=O)c1c(C)[nH]c(C(=O)OCC(=O)NC2CCS(=O)(=O)C2)c1C (configuration not stated)	-0.7%	0	-4	0.1	-15	-0.4

Entries of single compounds, quoted from the list.
Results for `COCC1CCN(C(=O)CC2C(=O)NCCN2Cc2cccc(Oc3ccccc3)c2)CC1` (configuration not stated) : PINK1 modulator = 1.7%; Six1-Eya2 blk = -2; D2 PAM = 0; TRPML1 ag = -0.5; TRPML1 inh = 6; D2 agonist = 3.5
Results for `CCO[C@H]1OC(C(=O)N2CCN(Cc3ccc4c(c3)OCO4)CC2)=C[C@@H](c2cn(C(C)=O)c3ccccc23)[C@@H]1CCCO` : PINK1 modulator = -0.4%; Six1-Eya2 blk = -16; D2 PAM = -18; TRPML1 ag = -0.7; TRPML1 inh = 4; D2 agonist = 1.5

Carrying on.
Compound | PINK1 modulator | Six1-Eya2 blk | D2 PAM | TRPML1 ag | TRPML1 inh | D2 agonist
Cc1cccc(C(=O)OCC(=O)N2CC(C)CC(C)C2)c1C (configuration not stated) | 3.3% | -2 | 0 | 1.2 | 32 | -2.4
COc1ccc(CCNC(=O)C/C(C)=N/NC(=O)c2ccc(Cl)cc2Cl)cc1OC | -1.6% | 2 | -10 | -0.8 | 2 | -4.7
COc1ccc(Cn2c(N)c(S(=O)(=O)c3cccs3)c3nc4ccccc4nc32)cc1 | ? | 21 | -10 | -0.4 | 21 | 1.9
Cc1cc(C)c(NC(=O)C2c3ccccc3Oc3ccccc32)c(C)c1 | 5.8% | 2 | 4 | -0.4 | -8 | -3.6
COc1cccc(CN(C)C(=O)c2cccc(S(=O)(=O)Nc3cccc(C)c3)c2)c1OC | -4.6% | -9 | -6 | 1.4 | 10 | -2.4
CC[C@@H](C)[C@@H]1CN([C@@H](C)CN2CCC[C@H]2CN2C(N)=NC[C@H]2CC(C)C)C(=N)N1CCCC1CCCC1 | 2.6% | 4 | . | -0.7 | 17 | 0.2
CS(=O)(=O)N(CC(=O)N1CCN(c2ccccc2)CC1)c1ccccc1Cl | . | 4 | -13 | -0.1 | 4 | -0.3
CC(=O)Nc1cccc(Oc2cnc3ccccc3n2)c1 | -3.8% | 5 | -12 | -0.9 | 1 | 0.0
Cc1ccc(N2C(=O)CC(N(O)C3CC(=O)N(c4ccc(C)cc4)C3=O)C2=O)cc1 (configuration not stated) | -3.8% | -3 | 6 | 3.5 | -16 | -1.3
CCOc1ccc(N2C(=O)CC(Sc3nc(CC(C)C)ccc3C#N)C2=O)cc1 (configuration not stated) | 2.2% | -6 | -5 | 0.9 | 28 | -4.3
COc1ccccc1NC(=O)c1cc2cc(Br)ccc2oc1=N | 4.6% | -26 | -8 | 3.2 | -18 | 2.4
Cc1ccccc1N/N=C/c1c(C)nc2ccccn12 | -3.1% | -4 | 8 | 2.5 | -3 | ?
O=C(/C=C/c1cccc([N+](=O)[O-])c1)NCCSCc1c(Cl)cccc1Cl | 0.4% | -8 | 2 | 0.3 | 6 | 0.9
CCOC(=O)C1=C(COC(=O)c2ccccc2OC)NC(=O)NC1C (configuration not stated) | 3.5% | 8 | 11 | 2.6 | 3 | 6.1
Cc1ccnc(NC(=O)CCC(=O)N(CC(=O)NC2CCCCC2)CC2CCCO2)c1 (configuration not stated) | 1.2% | 0 | -1 | 0.1 | -13 | -0.1
CSc1cccc(NS(=O)(=O)c2ccc(F)cc2)c1 | -2.2% | 0 | 3 | 0.5 | -3 | -2.7
COc1ccccc1NC1=NC(c2ccc(Cl)cc2)N=C(N)N1 (configuration not stated) | ? | -29 | -25 | -0.4 | -2 | -3.2
Cc1ccc(S(=O)(=O)n2cnc3ccccc32)cc1[N+](=O)[O-] | 3.1% | 0 | 1 | 0.1 | 2 | -9.8
C=CCN1C(=O)c2ccc(C(=O)N3CCN(S(=O)(=O)c4cccc(F)c4)CC3)cc2C1=O | 1.2% | 11 | -3 | -0.5 | 0 | -1.1
O=C(Nc1ccccc1Cl)O/N=C/c1ccc(F)cc1 | 2.0% | 9 | -6 | -0.6 | -8 | 1.1
COc1cccc(-n2c(=O)c3sccc3n(CC(=O)NCC3CCCO3)c2=O)c1 (configuration not stated) | -0.9% | -1 | -13 | -0.8 | -13 | -0.8
Cc1cccc(NC(=O)c2c(F)c(F)c(F)c(F)c2F)c1 | -1.2% | 5 | -19 | -0.5 | -6 | -1.0
CC(=O)Nc1ccc(NC(=O)CNC(=O)c2sc3ccccc3c2Cl)cc1 | 1.0% | 3 | -6 | 0.0 | -6 | 0.0
CCN1CCN(CCCNC(=O)c2ccc(NC(=O)C3=C(C)OCCS3)cc2)CC1 | 0.1% | -1 | -8 | 0.2 | -14 | -0.6
Nc1nonc1C(=O)NCCNCc1ccccc1OCc1ccccc1F | -2.7% | -6 | -31 | 2.6 | 47 | -3.5
C/C(Cl)=C/Cn1c(N2CCCC2)nc2c1c(=O)n(C)c(=O)n2C | -0.5% | -3 | -5 | 2.6 | -19 | -2.8
O=C(Cn1nc(-c2cccc([N+](=O)[O-])c2)c2ccccc2c1=O)Nc1cccnc1 | . | -7 | -2 | 0.1 | 2 | -2.6
Cn1nc(-c2ccccc2F)c2cc(C(=O)NCc3ccc(Cl)cc3)sc21 | 9.1% | . | . | 3.2 | 1 | .
COc1cccc(NC(=S)N2CCN(S(=O)(=O)c3ccccc3)CC2)c1 | 0.1% | 1 | -10 | 0.5 | 25 | -3.7
CCOC(=O)c1c(C)[nH]c(C(=O)COC(=O)CSCC(=O)N(CC)CC)c1C | -5.8% | -3 | -5 | 0.7 | -9 | -4.9
O=C(N/N=C/c1cc([N+](=O)[O-])ccc1O)Nc1ccccc1 | 1.1% | -6 | -23 | -0.5 | 8 | -20
